Screens deposited in PubChem by Fisher Drug Discovery Resource Center.
NPYLR7 agonist = activates Aedes aegypti NPYLR7 receptor; HEK293T NPYLR7/Galpha15, GCaMP6s calcium fluorescence; activation, % at 10 µM; 270,000 compounds, 0.15% hits; AID 1259423; in the data active = activation above about 40%;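 also: 0% = vehicle and 100% = reference agonist at the receptor; some compounds past the cut are filed as inactive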
NPYLR7 agonist max-min = recorded beside NPYLR7 agonist, whose call it bears; activation, %; measured here: Max-Min RFU normalised activation; some inactives read as strong as hits;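 span of the calcium signal over five minutes; 0% = vehicle and 100% = native peptide agonist; compound fluorescence can raise it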
The depositor's hits bear a star; & = joins results of further samples.

mol,NPYLR7 agonist,NPYLR7 agonist max-min
CC(Oc1cc(Cl)cc(Cl)c1)C(=O)NCCOCC(N)=O (stereo not given),8.2,7.5
COc1ccc2oc(=O)c(-c3nnc(-c4cccc(Br)c4)o3)cc2c1,-7.4,-6.9
CCOC(=O)c1c(SCC(=O)c2ccc(OC)cc2)nc(=O)[nH]c1C,5.2,8.3
CN(C)S(=O)(=O)c1cccc2c(S(=O)(=O)N(C)C)cccc12,4.0,2.7
COc1ccc(CN2CC3=C(C2=O)C(c2ccc(SC)cc2)NC(=O)N3)cc1 (stereo not given),0.4,18.4
O=C(NCCn1ncc2c(N3CCCCC3)ncnc21)C1COc2ccccc2O1 (stereo not given),-1.6,-4.6
CCN(Cc1nccn1C)C(=O)c1ccc(OCC2(C)CCCNC2)nc1 (stereo not given),5.6,5.2
CN(c1cc(C(C)(C)C)nc(SCc2cccc(C(=O)NCCc3ccccn3)c2)n1)C1CCCCC1,0.9,21.5
Cn1ccnc1C(NC(=O)COc1ccccc1)c1ccccc1F (stereo not given),3.5,9.7
O=C(c1cnn(Cc2ccccc2)c1)N1C[C@@H]2[C@@H]3CC[C@@H](C3)[C@@H]2C1,8.2,5.2
S=C(NC1CC2CCC1C2)N1CCN(Cc2ccc3c(c2)OCO3)CC1 (stereo not given),2.2,0.5
O=C(CSc1nc(=O)n2cc(Cl)ccc2n1)Nc1ccccc1,0.5,-1.2
CCCCc1ncc(CN2CCN(c3ncnc4ccccc34)CC2)[nH]1,3.5,2.4
CCOc1ccc(N(Cc2nnc3n2CCCCC3)C(=O)Nc2cccc(OC)c2)cc1,6.0,3.9
Cc1ccc2c(c1)c(C1CCN(C(=O)c3c(Cl)cc(Cl)cc3Cl)CC1)cn2C,37.6,34.9
COC(=O)c1ccc(C=C2CSc3ccc(F)cc3C2=O)cc1,2.8,2.8
CCC(C)C(NC(=O)C1C[C@H]1c1ccccc1)C(=O)Nc1nnc(-c2cccc(Cl)c2)s1 (stereo not given in full),-8.4,-13.9
COc1ccc(Br)c(Cn2c(C)c(C(=O)NC3CCCC3)sc2=O)c1,-10.3,0.2
CCc1csc(CNC(=O)c2coc3c2C(=O)CCC3)n1,3.3,-0.6
CCOC(=O)Nc1cccc(NC(=O)NC2CCCC2C)c1C (stereo not given),7.3,4.4
COc1cccc2c(C)cc(N3CCC(CC4CC4)(C(=O)O)CC3)nc12,-0.2,-1.1
Cc1c2c(=O)n(-c3nc4ccccc4s3)[nH]c2cc(=O)n1CCc1ccccc1,-12.9,-17.9
Brc1ccc2nc(-c3ccc4c(c3)OCO4)c(NC3CCCCC3)n2c1,-5.1,1.5
NC(=O)c1cncc(N2Cc3cnn(Cc4ccc(F)cc4)c3C2)n1,14.2,10.5
O=C(COc1cccc(F)c1)Nc1cccc(S(=O)(=O)NC2CC2)c1,-6.7,17.1
CCC(C)N(C(=O)c1c(F)c(F)c(F)c(F)c1F)C(C)CC (stereo not given),-12.2,-21.0
COCCC1(C(=O)O)CCN(c2cc(C(C)C)nc(C(F)(F)F)n2)CC1,6.8,4.8
O=C1NCC(=O)N2CCN(Cc3ccc4c(c3)OC(F)(F)O4)CC12 (stereo not given),2.8,2.0
COc1ccccc1/C=C1/SC(=S)N(CN2CCOCC2)C1=O,1.3,-1.9
CCOC(=O)c1ccc(OC2CC3CCC(C2)N3C(=O)c2ccc(CSc3ccccn3)cc2)cc1 (stereo not given),2.2,-6.2

Of the compounds above, these contain a Cl atom:
mol,NPYLR7 agonist,NPYLR7 agonist max-min
CC(Oc1cc(Cl)cc(Cl)c1)C(=O)NCCOCC(N)=O (stereo not given),8.2,7.5
O=C(CSc1nc(=O)n2cc(Cl)ccc2n1)Nc1ccccc1,0.5,-1.2
Cc1ccc2c(c1)c(C1CCN(C(=O)c3c(Cl)cc(Cl)cc3Cl)CC1)cn2C,37.6,34.9
CCC(C)C(NC(=O)C1C[C@H]1c1ccccc1)C(=O)Nc1nnc(-c2cccc(Cl)c2)s1 (stereo not given in full),-8.4,-13.9

Further entries
mol,NPYLR7 agonist,NPYLR7 agonist max-min
CN1CCN([C@@H]2CCN(c3ncnc4c3CCC4)C[C@H]2O)CC1,-0.7,-5.3
O=C(CCc1ccc2c(c1)OCO2)NCCN1Cc2ccccc2OC(c2ccsc2)C1 (stereo not given),13.1,2.8
COC(=O)C1=C(C)NC(C)=C(C(=O)O[C@@H]2CCCN(Cc3ccccc3)C2)[C@@H]1c1cccc([N+](=O)[O-])c1,-8.2&-4.8,-13.1&-9.5
NC1C2CC3CC(C2)CC1C3 (stereo not given),-0.9,-4.7
CN(Cc1ccccc1)c1c([N+](=O)[O-])ncn1C,-1.5,2.4
CC(C)Cc1nc(C(N)=O)c2[nH]c(=O)n(-c3ccccc3)c2n1,8.5,10.7
CCCCc1nnc(NC(=O)c2ccc(-n3nc(C)cc3C)nc2)s1,1.2,-2.5
CCOc1ccc(-c2ccc(C(=O)NCc3ccc(OC)cc3OC)s2)cc1,27.2,24.4
CC1Cc2cc(S(N)(=O)=O)ccc2N1C(=O)COC(=O)c1ccc(Cl)cc1 (stereo not given),21.1,12.2
CSc1ccc(COc2coc(CN3CCN(C(=O)c4ccc(C(F)(F)F)nc4C)CC3)cc2=O)cc1,3.3,1.0
CCC1CCCCN1C(=O)Cn1nc([N+](=O)[O-])c(Cl)c1C (stereo not given),5.6,7.0
Cc1ncc(C23CC4CC(CC(C4)C2)C3)s1,-0.4,-3.9
Cc1nn2c(c1C)n1nc(C)c(C)c1n1nc(C)c(C)c21,0.3,-1.2
CCC(C)n1nc(C)cc1NC(=O)Cn1nc(-c2cccnc2)c2ccccc21 (stereo not given),-4.5,-7.0
Cc1ccc(-c2noc(CN3CCN(c4ccc(F)cc4)CC3)n2)cc1,-8.7,-8.3
COc1cc(C(C)NC(=O)c2cccc3[nH]ncc23)cc(OC)c1OC (stereo not given),-4.5,15.3
COc1ccc(S(=O)(=O)N2CCC3(CC2)C(=O)N(CC(=O)NCCc2ccc(Cl)cc2Cl)CN3c2ccccc2)cc1,3.8,14.8
COC(=O)CCCCCNC(=O)C1CCN(S(=O)(=O)c2ccccc2)CC1,1.0,-8.1
CCOC(=O)c1ccc2c(c1)nc(SCc1cccc(I)c1)n2Cc1ccco1,-6.3,-10.7
NC(=O)Cn1nc(-c2ccccc2)c2sc(N3CCCCC3)nc2c1=O,-3.3,-5.1
Cc1c(C)n2c3c(=O)n(CCCO)c(=O)n(C)c3nc2n1-c1cccc(Cl)c1,19.4,5.0
CCOc1cc(C)ccc1NC(=O)CN1Cc2ccccc2C1,3.0&5.1,1.4&1.8
COc1ccccc1CCNC(=O)C(C1CCCC1)N1CCN(C(=O)c2ccc([N+](=O)[O-])cc2)CC1 (stereo not given),-7.2,0.9
C1CCCC(=NN=C2CCCCCCC2)CCC1,6.6,5.0
CC(C)(C)c1ccc(COc2coc(CN3CCCN(C(=O)C4COc5ccccc5O4)CC3)cc2=O)cc1 (stereo not given),-1.7,-5.8
CCCCCCc1cc2cc(-c3nnc(-c4ccc([N+](=O)[O-])cc4)o3)c(=O)oc2cc1O,1.0,-2.7
COc1ccc(S(=O)(=O)N2CCC(C(NC(=O)CC(C)C)C(=O)N3CCCCC3)CC2)cc1 (stereo not given),14.4,13.8
Cc1cc(NC(=O)COCc2cc(-c3ccco3)on2)no1,3.6,1.6
CSc1nccc(NCc2cccc(C)n2)n1,3.4,3.3
CC(=O)OCC(=O)N1CCN(C(c2ccccc2)c2ccc(F)cc2)CC1 (stereo not given),24.8,10.9
CCCCC(=O)Nc1c(C)nc2ccccn2c1=O,4.4,0.8
CC(=O)Nc1ccc(C)c(NCC(=O)Nc2ccccc2OC(F)F)c1,-4.9,-6.0
C=C(C)Cn1c(=O)c2c(nc3n(-c4ccc(F)cc4)c(C)cn23)n(C)c1=O,5.5,0.0
Cc1cnc2n(c1=O)C(CC(=O)Nc1cccnc1)CS2 (stereo not given),-1.3,-4.4
CC1CCCCC1NC(=O)CSCc1nc2scc(-c3cccs3)c2c(=O)[nH]1 (stereo not given),0.9,-0.3
COC(=O)c1ccc(N2C(=O)/C(=C/c3ccc(OC)c(Br)c3)C=C2c2ccccc2)cc1,-1.0,3.9
CCNC(=O)Cn1c(CO)cnc1SCC(=O)Nc1ccc(C(N)=O)cc1,12.7,11.1
C=CCNc1ccccc1C(=O)N(Cc1ccc2c(c1)OCO2)C1CC1,4.2,4.2
COCc1cccc(-c2ccc3c(c2)COC2(CCN(C(C)=O)CC2)O3)c1,-3.7,-8.2
C=CCCC(O)CN(CCCOC)CC(=O)N1CCc2sccc2C1COc1ccccc1F (stereo not given),3.0,19.5

Reformatted: results already given
Each structure is followed by: NPYLR7 agonist, NPYLR7 agonist max-min
- Cc1cnc2n(c1=O)C(CC(=O)Nc1cccnc1)CS2 (stereo not given)
→ -1.3, -4.4
- CC1CCCCC1NC(=O)CSCc1nc2scc(-c3cccs3)c2c(=O)[nH]1 (stereo not given)
→ 0.9, -0.3
- COC(=O)c1ccc(N2C(=O)/C(=C/c3ccc(OC)c(Br)c3)C=C2c2ccccc2)cc1
→ -1.0, 3.9
- CCNC(=O)Cn1c(CO)cnc1SCC(=O)Nc1ccc(C(N)=O)cc1
→ 12.7, 11.1
- C=CCNc1ccccc1C(=O)N(Cc1ccc2c(c1)OCO2)C1CC1
→ 4.2, 4.2

(further entries)
mol,NPYLR7 agonist,NPYLR7 agonist max-min
C1CC(CN2CCNCC2)C1,-2.0,-3.1
Cn1ncc([N+](=O)[O-])c1C(=O)Nc1ccc(-c2nc3ccccc3o2)cc1,-18.9,-22.8
COc1cccc(Cc2nsc(N(CCC(=O)N3CCN(c4ccccc4Cl)CC3)C(C)C)n2)c1,-1.7,6.9
CCC(C(=O)N1CCC2(CC1)C(=O)N(CC(=O)Nc1cccc(OC)c1)CN2c1ccccc1)c1ccccc1 (stereo not given),-7.9,3.5
CC1(C(=O)NS(=O)(=O)c2cccc(F)c2)CCN1C(=O)CCc1cccs1 (stereo not given),1.5,-0.6
Cc1ccc(NC(=O)c2cc(-c3ccc(C)o3)nn2-c2ccc(C)cc2C)cc1,-4.5,6.2
c1ccc(-c2ncn(CCc3cnc[nH]3)c2-c2ncc[nH]2)cc1,-4.0,-9.5
CCOCCCN(CC(=O)N(Cc1ccc(F)cc1)Cc1ccc(C)s1)C(=O)C1CCC1,6.3,6.7
Cc1nc(C(C)C)ncc1C(=O)N(C)Cc1cc(C(C)(C)C)n[nH]1,-8.5,-11.1
C=CCN1C[C@@H]2C[C@@H](C(=O)O)N(C(=O)c3cc(C)oc3C)c3cccc(c32)C1=O,5.8,7.6
O=[N+]([O-])c1cc(S(=O)(=O)C(F)(F)F)ccc1Nc1ccc2c(c1)OCO2,10.6,6.3
O=c1c(-c2ccc3c(c2)OCCCO3)coc2cc(O)ccc12,-0.8,-8.2
O=C(c1cn(C2CCCCC2)nn1)N1CCOCC1,23.1,9.4
CN1NC(c2ccc(O)cc2)C2C(=O)N(Cc3ccccc3)C(=O)C21 (stereo not given),0.8,2.7
CCc1nc2ccc(C(=O)N(C)CCCN(C)C)cn2c1N(C)Cc1cc2ccccc2s1,-4.5,-8.3
CNc1cncc(-c2cccc(NS(C)(=O)=O)c2)n1,-0.4,0.0
OC(CNc1ncc(Br)cn1)COc1cccc(Cl)c1Cl (stereo not given),2.5,1.2
CC1=NN(CCCO)c2nc3c(c(=O)n(Cc4c(F)cccc4Cl)c(=O)n3C)n2C1C (stereo not given),-1.7,4.0
CCNc1nc(NC(C)C)nc(OCCOC(C)=O)n1,-3.9,-7.0
Cc1cc(C(=O)C(C)N2CCNC(=O)C2)c(C)n1-c1ccc(Cl)cc1 (stereo not given),8.2,3.9
CC1CCC(C(C)C)C(OC(=O)COC(=O)C2CCCCC2)C1 (stereo not given),1.7,-0.5
O=C(NC(c1ccccc1)c1ccc2ccccc2n1)C1CCN(Cc2ccccc2)CC1 (stereo not given),14.0,3.6
O=c1[nH]c(/C=C/c2cccc(Cl)c2Cl)nc2c1CN(Cc1ccccc1)CC2,-2.7,-4.4
NS(=O)(=O)c1ccc(C(=O)N(CC2CC2)CC2CC2)cc1F,-1.1,2.2
Cc1c(C)n2c3c(=O)[nH]c(=O)n(C)c3nc2n1CCCN1CCN(c2ccc(F)cc2)CC1,2.6,-4.0
Nc1cncc(-n2ccnc2-c2cccnc2)c1,2.5,0.2
Cc1nnc(N2CCC(COc3ccccn3)CC2)c(C#N)c1C,0.1,-0.6
Cc1ccc(C(N)=NOC(=O)N2c3ccccc3Sc3ccccc32)cc1,2.6,1.5
Cc1ccc(N2C(=O)CSC2c2cccnc2)cc1C (stereo not given),-4.6,-8.9
O=C(CCC1CCN(C(=O)CC2CCC(=O)N2)CC1)NCc1cccc(Cl)c1 (stereo not given),4.0,3.8
CN(Cc1noc2c1CCCC2)S(=O)(=O)NCc1ccccc1,0.9,-0.5
CC=CCn1c(=O)c2c(nc3n2CC(C)=NN3CCC(C)C)n(C)c1=O,5.8,10.2
CCOc1ccc(-c2ccc(=O)n(CCNS(=O)(=O)c3ccc(Cl)s3)n2)cc1,-0.2,-0.4
Cc1cc(C)c(CNC(=O)c2ccccc2Oc2cccc(Br)c2)c(=O)[nH]1,0.2,13.1
Cc1cc(-n2ccnc(SCC(=O)NCc3ccccc3)c2=O)ccc1Br,2.1,1.5
CC(C)SC(NC(=O)OCc1ccccc1)C(=O)N1CCCC(O)C1 (stereo not given),6.5,3.7
Cc1ccc(C)c(S(=O)(=O)NC(C)c2ccc(-c3csc(C)n3)cc2)c1 (stereo not given),1.0,1.4

Some of the compounds tested; the hit share may differ from the screen's.
